# A1 inh: inhibitors of the anti-apoptotic protein A1, read as caspase activation; MEF A1-2A-BIM cells, Caspase-Glo 3/7 luminescence, 3 h; percent of clofoctol response, vehicle zero; caspase activation, % (test concentration not listed); 330,000 compounds, 0.066% hits; AID 2462;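 active = over half of replicate activation scores above 10%, or exactly half above 10 with the replicate mean above 10; inconclusive = replicate mean below 10 yet half the replicates above 10; inactive = over half of replicates below 10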;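 also: wells of about 30 µL received 50 nL stock; many hits fall short of the cut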
# ALR inh: inhibitors of human sulfhydryl oxidase ALR; inhibition, % (test concentration not listed); purified ALR, DTT oxidation, H2O2 HRP-luminol luminescence; P55789; 290,000 compounds, 3.8% hits;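 active = mean and each replicate at 75% or more; inconclusive = only one of the two met; inactive = neither met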;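 also: stock transfer was 7.5 nL into about 7.5 µL; 0% = neutral wells and 100% = wells with inactivated enzyme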
# Target sequence (P55789 whole entry, looked up): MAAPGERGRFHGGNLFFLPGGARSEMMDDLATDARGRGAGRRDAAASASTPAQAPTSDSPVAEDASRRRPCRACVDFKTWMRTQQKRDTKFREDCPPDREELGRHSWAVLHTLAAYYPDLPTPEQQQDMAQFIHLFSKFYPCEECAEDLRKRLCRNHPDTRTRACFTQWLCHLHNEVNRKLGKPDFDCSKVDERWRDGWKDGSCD
# T cruzi inh: T. cruzi replication inhibition; T. cruzi beta-gal in NIH3T3, luminescence, 90 h; inhibition, % (test concentration not listed); 300,000 compounds, 1.4% hits; AID 1885;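 active = mean inhibition across valid replicates above about 55%, limit read from the data; inconclusive = mean below that limit but half or more replicates reach it; inactive = mean below it, under half of replicates reach it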;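 also: signal also drops with host cell toxicity which is not excluded here; 0% = plate median of DMSO wells and 100% = zero luminescence signal; higher percent means less beta-gal luminescence so fewer parasites; stock transfer was 50 nL into about 50 µL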
# Beta cell apopt: blocks beta cell apoptosis. INS-1E cytokine-induced death, ATP luminescence, 48 h; percent of positive-control rescue, neutral wells zero. protection from apoptosis, % (test concentration not listed). 300,000 compounds, 0.8% hits;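 active = all replicates at 75% or more, or half of them and the mean; inconclusive = half reach 75% but not the mean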;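 also: 0% = cytokine-treated negative control wells and 100% = positive control rescue; higher means more ATP so stronger rescue from cytokine killing; wells of about 40 µL received 100 nL stock; the first replicate is given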
# Beta2AR agonist: human beta-2 adrenergic receptor agonism by FAP; Am2.2-beta2AR cells, FAP receptor internalization, flow cytometry; reference of the scale not given here; response, % (test concentration not listed); 340,000 compounds, 0.43% hits;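 active = response above a set limit, near 3 SD of response in nonfluorescent compounds, cut at about 42% in these data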;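 also: stock transfer was 100 nL into about 11 µL; a reference agonist was the positive control; negative values mostly stem from fluorescent compounds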
# Target sequence (P07550 whole entry, looked up): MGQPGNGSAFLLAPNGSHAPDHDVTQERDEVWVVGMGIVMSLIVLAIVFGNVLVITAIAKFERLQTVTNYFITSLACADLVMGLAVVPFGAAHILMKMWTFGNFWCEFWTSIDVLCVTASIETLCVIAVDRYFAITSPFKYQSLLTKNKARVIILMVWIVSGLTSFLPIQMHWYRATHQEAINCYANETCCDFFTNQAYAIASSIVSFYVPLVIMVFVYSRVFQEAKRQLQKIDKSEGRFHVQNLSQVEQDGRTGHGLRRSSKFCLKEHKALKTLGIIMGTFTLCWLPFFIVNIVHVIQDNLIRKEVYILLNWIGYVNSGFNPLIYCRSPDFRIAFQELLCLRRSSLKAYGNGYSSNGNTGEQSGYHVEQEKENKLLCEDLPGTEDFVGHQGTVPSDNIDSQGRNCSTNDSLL
# LANA-H2A inh: blocks KSHV LANA binding to histone H2A/H2B. 320,000 compounds, 0.6% hits. Q9QR71. inhibition, % (concentration not given with the values). cell-free LANA-H2A/H2B peptide, fluorescence polarization. AID 2629; in the data active = inhibition mostly above about 10%, no sharp cut-off; inactive = mostly below about 6.7%;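 also: stock transfer was 7.5 nL into about 10 µL; 0% = median of vehicle wells and 100% = median of positive control wells; one replicate is shown; the record names a cut of 25% in any replicate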
# Calb FLC: affects C. albicans growth with fluconazole. 300,000 compounds, 0.57% hits. C. albicans CaCi-2 (fluconazole-resistant clinical isolate) + fluconazole, Alamar Blue growth, 48 h. AID 1979. growth inhibition, % (concentration not given with the values);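 active = most replicates above 75%; inconclusive = exactly half above 75%; inactive = most below 75%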;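 also: all wells also contain fluconazole at 8 µg/ml as a sub-toxic cotreatment; 0% = median of DMSO wells and 100% = median of geldanamycin control wells; wells of about 8 µL received 7.5 nL stock; the first replicate is given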
# Ecoli rRNA inh: inhibits bacterial ribosomal RNA function over humanized ribosomes; GFP signal change (wild-type ribosome), % (concentration not given with the values); AID 720706; E. coli WT GFP vs humanized-ribosome RFP mutants, fluorescence, 24 h; hits give low values; DMSO median 0, no signal -100; 350,000 compounds, 1.6% hits;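 active = significant combined selectivity score with lowered wild-type GFP, culture density cut under 30%, mutant RFP and density less affected; inactive = any of these conditions unmet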; also: one replicate is shown; some compounds called inactive have numbers as strong as hits
# Ecoli rRNA inh OD600: also measured in Ecoli rRNA inh; calls as there; OD600 change, %; measured here: OD600 growth;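 optical density of the mix in the first replicate; 0 = DMSO median and -100 = no signal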
# Ecoli rRNA inh RFP: recorded beside Ecoli rRNA inh, whose call it bears; RFP signal change, %; measured here: RFP humanized mutant strains;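 first replicate; 0 = DMSO median and -100 = no signal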
# Active calls of the source: *; ? = inconclusive; . = no result given. Not all compounds are listed; count on the stated rates, not on these rows.
structure	Beta2AR agonist	Calb FLC	Ecoli rRNA inh OD600	Ecoli rRNA inh	LANA-H2A inh	ALR inh	A1 inh	Ecoli rRNA inh RFP	Beta cell apopt	T cruzi inh
CC(Oc1ccc2c3c(c(=O)oc2c1)CCCC3)C(=O)NCCCn1ccnc1 (centres undefined)	-13	7	-4	-2	0.7	-4	0.3	-2.2	-8	-9
CCOc1ccc(-n2nc(C(=O)NCCOC)c3ccccc3c2=O)cc1	-10	.	.	.	-2.1	-1	-0.5	.	-1	.
CCN(CC)CCNC(=O)c1c(O)c2cc(OC)c(OC)cc2[nH]c1=O	4	4	.	.	1.2	-4	1.0	.	-8	-1
Cc1cc(OC(=O)c2ccc(Cl)cc2Cl)nc(C)n1	0	2	.	.	-4.6	-15	0.1	.	1	-5
COc1cccc(CC(=O)Nc2cccc3ccccc23)c1	2	-26	6	4	-3.4	.	0.1	1.7	3	1
CC(C)C(=O)Nc1csc(C(F)(F)F)c1-c1ccccc1	0	-8	8	13	-6.9	2	0.1	2.4	1	-5
O=C(Nc1ccccc1Cl)NC1(C(=O)NCC2CCCO2)CCCCC1 (centres undefined)	-1	7	5	5	-1.9	-1	0.1	0.4	-8	-17
CCOC(=O)c1ccc(NC(=O)c2c(N)n(C)c(=O)[nH]c2=O)cc1	-1	-4	.	.	-0.9	-6	-5.8	.	-2	-12
C[C@@H]1C[C@@H]2OC(=O)[C@]3(C)[C@H]2[C@@H](OC3(C)O)[C@]2(C)C(=O)C=C[C@H]12 (some centres undefined)	8	5	8	3	2.5	17	0.2	9.4	-6	3
COc1cccc(-n2cc(CNCc3c(C(=O)N(C)C)nc4ccc(Cl)cn34)cn2)c1	-10	2	-13	-1	7.3	.	0.5	-1.6	0	-1
CCOc1ccc(NC(=S)NNc2ccnc3cc(Cl)ccc23)cc1	14	-9	12	-1	-4.2	.	-0.5	-3.1	2	-7
Cc1ccc(NC(=O)C/C(N)=N/OC(=O)Nc2ccc(C)c(Cl)c2)cc1	5	.	-22	0	-6.6	6	1.4	-0.1	2	.
COc1ccccc1-c1nn(-c2ccccc2)cc1C(=O)N1CCN(C(=O)c2ccco2)CC1	-26	.	-5	2	1.8	-4	-0.1	-0.6	-5	.
O=C(Cn1cnc2c(cnn2-c2ccccc2)c1=O)Nc1cc(S(=O)(=O)N2CCOCC2)ccc1Cl	-15	-11	.	.	6.2	-16	0.7	.	1	-5
COc1cccc(CNC(=O)CCn2c(=O)c3cccn3c3cccnc32)c1	-21	-19	1	15	5.1	-4	1.3	-0.5	0	13
CCCCCCCCCCn1ccc(=N)cc1	15	108*	-70	-50	1.1	.	-0.4	-17	116*	77*
COc1cc(C)c(CN2CCSCC2)cc1C	4	-4	9	8	-4.3	0	1.8	4.4	-2	4
O=C1c2ccccc2C(=O)N1Cc1cc(-c2ccccc2Cl)no1	-23	-14	.	.	-15	-1	0.5	.	.	-13
O=C(CSc1ncnc2c1cnn2-c1ccccc1)Nc1ccc2c(c1)OCO2	-3	-27	.	.	2.1	-6	-1.1	.	11	7
Cc1ccc(NC2=NC(c3ccc(F)cc3)n3c(nc(C)cc3=O)N2)cc1 (centres undefined)	-4	3	-4	-5	-0.5	-1	0.4	4.8	-2	2
C/C(CC(=O)Nc1cccc2c1CCCC2)=N\NC(=O)c1cccc2ccccc12	-1	?	.	.	-0.7	3	0.8	.	-5	-20
Cc1ccc(C)c(N2CCN(C(=O)c3csc4ccccc34)CC2)c1	2	-5	.	.	-1.1	-6	0.3	.	-5	28
Cc1ccc(S(=O)(=O)CCC(=O)Nc2cccc([N+](=O)[O-])c2)cc1	-1	?	2	8	-3.9	0	-0.1	1.2	-8	-14
O=C(N1CCCCC1)N1CCN(S(=O)(=O)c2ccc(Cl)cc2)CC1	-6	-7	1	5	2.7	-5	0.7	2.8	4	10
COc1ccc(NC(=O)c2csc3c2CCCC3)cc1	-4	-22	3	5	6.7	1	-4.0	-9.1	-1	-20
CCN(CC)S(=O)(=O)c1c(OC)cc(C)c(Cl)c1C	10	3	-62	-47	3.2	-8	-0.5	-11	-9	10
O=S(=O)(/C=C/c1ccccc1)NC1CCCCCC1	1	-25	-68	-44	-3.9	5	0.6	-0.9	-6	-6
CC(C)c1ccc(NC(=O)C[n+]2ccn(C3=C([O-])c4ccccc4C3=O)c2)cc1	-4	5	-26	-19	-8.6	0	-0.6	-2.4	-2	-5
NNC(=O)c1snnc1-c1ccccc1	11	-2	0	1	0.3	-36	0.9	0.5	-2	-14
CCn1c(CNC(=O)c2ccccc2F)nnc1SCC(=O)NC1CCCCC1	-2	15	11	9	4.4	4	0.5	-0.8	-1	-2
COC(=O)c1sc(NC(=O)C2c3ccccc3Oc3ccccc32)c(C(=O)OC)c1C	4	4	.	.	3.4	11	0.2	.	116*	10
Cc1[nH]c2ccccc2c1C(=O)C(=O)N1CC=C(c2ccccc2)CC1	-32	26	.	.	1.8	.	0.4	.	-5	12
Cc1ccc(SCCNC(=O)/C=C/c2ccc(Cl)cc2)cc1	-4	9	.	.	3.3	1	-0.4	.	-9	2
O=C1C(=O)N(CCCn2ccnc2)C(c2ccc(Br)cc2)/C1=C(\O)c1ccc2c(c1)OCCO2 (centres undefined)	-11	20	7	-1	-1.8	22	0.5	3.4	1	-9
CC(C)c1nc(SCC(=O)Nc2nccs2)c2ccccc2n1	-10	0	-1	9	5.5	-1	0.0	6.9	-8	-3
COc1ccc(N2CC(O)=C(c3nc(-c4ccc(F)cc4)cs3)C2=N)cc1Cl	1	24	1	9	-1.3	-10	1.8	11	3	14
COc1cc(-c2nc3ccc4ccccc4c3c3c2CCC3)cc(OC)c1O	7	5	.	.	-5.3	55	-0.1	.	1	19
CCn1ccnc1CNC(=O)C1CCC(=O)N(Cc2ccccc2F)C1 (centres undefined)	5	-5	3	9	-2.3	-5	0.3	-0.3	4	21
COc1ccc(CNC(=O)N2CCN(c3cccc(Cl)c3)CC2)cc1OC	4	2	-11	-8	9.4	2	-0.4	1.5	-6	8
O=C(CC1S/C(=N/N=C/c2cccs2)NC1=O)Nc1ccc(Cl)c(Cl)c1 (centres undefined)	-4	5	.	.	.	.	0.1	.	-1	2
CCCCNC(=O)C(=O)NCc1ccncc1	1	-8	9	16	-3.8	.	-0.4	-0.4	.	5
CCCCC[C@@H]1C=C(C(=O)O)[C@H](c2ccc(Cl)c(Cl)c2)N1S(=O)(=O)c1ccc(C)cc1	1	.	-36	-5	120*	27	0.1	3.2	-1	.
O=C1CCCN1CCC1CCN(C(=O)Nc2ccccc2)CC1	-4	23	8	16	-3.4	6	0.0	-2.7	-4	-24
CCN(C(=O)N1CCOCC1)c1ccccc1C	-2	5	7	6	2.5	-1	1.0	-1.4	9	3
Cc1c(CN2CCC(n3nccc3NC(=O)C3CC3)CC2)[nH]c2ccccc12	-2	4	22	18	2.3	6	-1.2	6.7	6	-2
N#CC(C#N)=C1C=CC=CN1/C(=C\c1ccco1)C(=O)c1ccc(Br)cc1	75*	.	.	.	2.4	.	0.7	.	101*	.
O=C(NCCS(=O)(=O)NC1CCCC1)c1ccc(F)cc1	1	-4	5	0	-0.1	0	-0.2	-0.2	6	-9
NS(=O)(=O)c1ccc(CCNC(=O)CNCCc2ccc(C(F)(F)F)cc2)cc1	7	-4	-9	-1	0.5	.	0.8	0.0	-1	1
CCOC(=O)C1CCN(C(=O)c2ccccc2NS(=O)(=O)c2ccc(F)cc2)CC1	1	?	-1	4	-1.6	14	0.0	-3.9	-2	-11
C=CCN1C(=O)c2ccc(C(=O)N(C)CC(=O)Nc3ccccc3Cl)cc2C1=O	11	0	9	9	-5.4	0	-0.6	1.1	1	-4

# Next part:
structure	Beta2AR agonist	Calb FLC	Ecoli rRNA inh OD600	Ecoli rRNA inh	LANA-H2A inh	ALR inh	A1 inh	Ecoli rRNA inh RFP	Beta cell apopt	T cruzi inh
NC(=O)c1ccccc1NC(=O)CN1CCOCC1	-1	3	.	.	0.7	-14	.	.	-5	-1
CCOC(=O)Cc1csc(NC(=S)NC(=O)c2cc(OC)cc(OC)c2)n1	-7	-14	-4	-5	-3.3	.	0.4	11	-5	5
CCn1c(=O)c(C(=O)NCCCc2ccccc2)c(O)c2ccccc21	-5	-7	7	14	-2.7	-8	-2.1	0.8	-2	31
CSc1nsc(N/N=C/c2ccc3c(c2)OCO3)c1C#N	3	-2	-23*	-29*	-2.4	-14	0.3	-1.8*	26	-9
N=C(N)SCc1cn2ccccc2n1	-2	-12	.	.	2.3	98*	-0.7	.	-14	-18
COc1cc(OC)cc(C(=O)N2CCN(S(=O)(=O)c3ccc(Cl)s3)CC2)c1	4	.	-21	-6	-3.3	.	?	-0.9	-2	.
O=C(CN1CCN(S(=O)(=O)c2cccc(Br)c2)CC1)N1CCCCC1	-5	.	-6	-4	1.9	.	-0.5	0.7	-2	.
O=C(Cc1ccc(Cl)c(Cl)c1)Nc1ccccc1N1CCCC1	6	3	-63	-41	-2.0	0	1.0	-5.1	0	16
O=C(CN1C(=O)/C(=C\c2cccc(Cl)c2)Sc2ccccc21)NCCCN1CCOCC1	5	11	-25	-17	1.1	-11	0.4	3.5	.	-2
COc1ccc(Cl)cc1-c1nc(SCC(N)=O)n[nH]1	-11	-5	-13	2	-5.2	.	0.4	2.3	-6	6
C=C1CCN([C@@H](Cc2ccccc2)C(=O)NCCC(C)C)S(=O)(=O)c2ccccc21	8	-4	-15	-7	2.2	-11	1.6	-2.8	0	8
O=C(N/C(=C\c1ccc([N+](=O)[O-])cc1)C(=O)N1CCCCC1)c1ccccc1Br	4	?	.	.	-6.4	?	0.3	.	1	10
COc1ccc(C2(C(=O)N3CCCC3)CCOCC2)cc1OC	-8	-5	.	.	3.7	.	-0.2	.	-5	0
COc1ccc2cc(C(=O)OC(C)C)sc(=O)c2c1OC	0	5	.	.	-4.0	-5	-1.0	.	7	-6
CC1CCN(C(C)C(=O)Nc2ccccc2-c2ccccc2)CC1 (centres undefined)	3	6	.	.	-3.9	3	0.9	.	.	6
COc1cccc(/C=N/NC(=O)C(=O)Nc2ccccc2OC(F)(F)C(F)F)c1O	-1	109*	-49	-32	-7.5	9	-0.3	-9.8	82*	-3
Cc1ccc(N=Nc2c(=O)[nH]n3c(C)cc(C)nc23)cc1	12	3	.	.	-1.6	9	0.0	.	-4	-4
O=C(NC(Cc1ccccc1)c1nc2ccccc2[nH]1)c1cccc([N+](=O)[O-])c1 (centres undefined)	14	2	1	9	2.9	.	-0.7	9.3	3	18
CCCCN(C)C1CCN(C(=S)Nc2cccc(OC)c2)CC1	-1	-10	5	14	-0.6	14	1.0	3.0	-9	13
O=C(c1c(Cl)cccc1Cl)N1CCN(c2cccc3[nH]ccc23)CC1	12	-5	8	-9	-3.7	99*	0.0	-1.5	-3	9

# Screening data: PubChem BioAssay, several laboratories
